Marburg entry inh – Marburg virus entry inhibition. Marburg virus pseudotyped entry inhibition, cell reporter; control for the full effect not named in the record; about a third of the inactives were read at about 46 µM. Potency, µM (doses to about 37.8 µM), inactives show at the highest dose activity change, negative = inhibition, most hits filed as inhibitors. actives 1.8% (n = 300,000); active = well fitted inhibition curve with a large enough effect; inconclusive = small, poorly fitted or top-dose-only effect, or effect the other way; inactive = flat fitted curve, though single readings scatter; tested in HEK293 cells; about a fifth of its hits are not listed in these tables; further: on the % scale 0 is the no-effect control and ±100 the full control effect; luciferase read-out
Cruzain inh noDet – inhibitors of Trypanosoma cruzi cruzain without detergent; Potency, µM, inactives show max response, negative = inhibition, usual class: inhibitors; purified cruzain, Z-FR-AMC fluorescence, no detergent; P25779; actives 2.3% (n = 200,000); AID 1476;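 further: plate controls were enzyme without inhibitor for no effect and buffer without enzyme for full effect; nearly all actives have a fitted effect of over 40% in size; top concentration of the series not given in the record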
Target sequence (P25779 123-467 limits assumed): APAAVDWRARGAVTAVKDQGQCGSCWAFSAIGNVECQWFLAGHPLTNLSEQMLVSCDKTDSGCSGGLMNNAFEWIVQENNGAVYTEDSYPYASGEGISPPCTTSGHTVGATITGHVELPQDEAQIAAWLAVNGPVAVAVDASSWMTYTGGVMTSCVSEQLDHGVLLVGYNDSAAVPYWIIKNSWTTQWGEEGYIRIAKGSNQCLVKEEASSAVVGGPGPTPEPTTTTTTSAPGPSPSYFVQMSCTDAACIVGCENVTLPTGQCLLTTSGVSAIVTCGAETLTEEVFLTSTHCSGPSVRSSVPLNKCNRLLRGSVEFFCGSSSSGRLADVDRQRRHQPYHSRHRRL
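Detergent-free condition (0.00005% Triton X-100) in acetate buffer pH 5.5 with DTT. 1.5 nM enzyme and compound were pre-mixed 15 min, then 2 uM Z-FR-AMC substrate added; reaction progress from fluorescence change between first and third reads (60 s).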
SARS PLP yeast – SARS-CoV PLP inhibition in yeast. actives 0.19% (n = 330,000). AID 485353. Potency, µM (highest dose often 32.9 µM), without a hit: at the highest dose activity, positive = growth rescue. S. cerevisiae expressing SARS-CoV PLpro, growth rescue; control for the full effect not named in the record; active means well fitted rising curve with a large enough effect; inconclusive means small, poorly fitted or top-dose-only effect; inactive means no such curve, though single readings can be large or run the other way; further: 0% is about no effect; nearly all actives have a fitted effect of over 55% in size; growth read by luminescence after 48 h
Cruzain inh Det – cruzain (T. cruzi) inhibition with detergent; P25779; Potency, µM, for the others: max response, negative = inhibition, hits mostly inhibitors; purified cruzain, Z-FR-AMC fluorescence, 0.01% Triton; actives 0.43% (n = 200,000);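 further: plate controls were neutral wells for no effect and buffer without enzyme for full effect; nearly all actives have a fitted effect of over 40% in size; top concentration of the series not given in the record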
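Z-FR-AMC hydrolysis (2 uM substrate) by cruzain (1.5 nM) monitored kinetically at ex 360/em 450 nm after 15 min room-temperature compound exposure; 0.01% Triton X-100, pH 5.5, 5 mM DTT.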
RE007 growth inh – less growth of the S. pombe RE007 Vpr strain | S. pombe RE007 Vpr strain, BacTiter-Glo ATP luminescence, 24 h; control for the full effect not named in the record | Potency, µM (doses to about 92.2 µM), without a hit: at the highest dose activity change, negative = less growth | actives 0.21% (n = 360,000) | AID 651644; active = well fitted falling curve with a large enough effect; inconclusive = small, poorly fitted or top-dose-only effect; inactive = no such curve, though single readings can be large or run the other way;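 further: on the % scale 0 is the no-effect control and ±100 the full control effect; nearly all actives have a fitted effect of over 50% in size; the assay follows cell death caused by Vpr and the record does not say whether a fall means rescue or toxicity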
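Fission yeast strain RE007, carrying one chromosomally integrated HIV-1 vpr copy, was seeded at OD 0.01 in PMG+AL medium with 23 nL pinned compound. After 24 h at 30 °C and 99% humidity, viability was read by BacTiter-Glo luminescence.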
2A StopGo – lowers the luciferase signal of an FMDV 2A StopGo reporter. human cells with a luciferase reporter of 2A StopGo recoding; control for the full effect not named in the record. Potency, µM (highest dose often 57.9 µM), for the others: at the top dose signal change, negative = less light. actives 1.2% (n = 410,000); active = well fitted falling curve with a large enough effect; inconclusive = small, poorly fitted or top-dose-only effect; inactive = no such curve, though single readings can be large or run the other way; tested in HEK293T cells; further: on the % scale 0 is the no-effect control and ±100 the full control effect; nearly all actives have a fitted effect of over 45% in size; luciferase light after 4 h
NS1 function inh – inhibitors of influenza NS1 protein function; S. cerevisiae slowed by influenza A NS1, growth recovery by OD600; Potency, µM (top dose mostly 46.1 µM), without a hit: at the highest dose activity, positive = more growth; actives 0.4% (n = 270,000); active means well fitted rising curve with a large enough effect; inconclusive means small, poorly fitted or top-dose-only effect; inactive means no such curve, though single readings can be large or run the other way; further: nearly all actives have a fitted effect of over 50% in size
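Growth recovery, yeast-based: influenza A NS1 expressed in S. cerevisiae causes slow growth, and suppressors are detected by OD600. The parent strain without NS1 is used as positive control.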
LASV entry inh – blocks Lassa virus binding to or entry into cells. AID 540256. Lassa virus pseudotype entry inhibition, cell reporter; control for the full effect not named in the record. actives 1.2% (n = 300,000). Potency, µM (top dose mostly 37.9 µM), for inactives: top-dose activity change, negative = inhibition, actives largely listed as inhibitors; active means well fitted inhibition curve with a large enough effect; inconclusive means small, poorly fitted or top-dose-only effect, or effect the other way; inactive means flat fitted curve, though single readings scatter; tested in HEK293 cells; further: on the % scale 0 is the no-effect control and ±100 the full control effect; nearly all actives have a fitted effect of over 50% in size; luciferase read-out
Starred values were filed as active, the others as inactive; ? = inconclusive; nt = not tested or not shown; & = joins results of further samples; [ ] = dose if it differs, or a comment. Unless noted, the call rests on the fitted dose curve; in most records, active means well fitted curve in the direction sought with a large enough effect; inconclusive means small, poorly fitted or top-dose-only effect, or another doubt; inactive means no such curve, though single readings can be large; an effect the other way counts as inactive or inconclusive. Potency means the concentration at half of the fitted maximal effect.

SMILES	Marburg entry inh	Cruzain inh noDet	SARS PLP yeast	Cruzain inh Det	RE007 growth inh	2A StopGo	NS1 function inh	LASV entry inh
O=C(CSc1nnc2[nH]c(=O)cc(-c3ccccc3)n12)Nc1cc(C(F)(F)F)ccc1Cl	nt	-13%	nt	-1.1%	nt	?	nt	-23%[46.1 µM]
CCCn1nnc(NC(=O)c2cccc(OCc3ccccc3)c2)n1	4%[46.1 µM]	-6%	-9%	-0.3%	-1%	-20%	-45%	-27%
C[C@H](NC(=O)c1nc[nH]c1C(=O)NCc1ccccc1)C(=O)OCc1ccccc1	nt	nt	0%	nt	8%	-4%	-7%	nt
Cc1c(C(=O)NN)sc(-c2ccccc2)c1C#N	?	nt	10%	nt	10%	-5%	nt	?
CC(C)CC(c1nnnn1C(C)C)N1CCN(C(=O)c2ccco2)CC1 (centres undefined)	-11%[46.1 µM]	nt	-2%	nt	2%	-5%	nt	15%
Cc1cc(C(=O)Nc2cc(S(C)(=O)=O)ccc2Cl)no1	-1%[46.1 µM]	nt	-4%	nt	-6%	-2%	nt	-20%
N#C/C(=C(/O)COC(=O)COc1ccc(Cl)cc1)c1nc2ccccc2[nH]1	?	?	-1%	-0.5%	13%	?	1%	-16%
O=C1NC2(CCC3(CC2)OCCO3)NN1c1ccccc1	?	nt	-1%	nt	186%	-4%	nt	?
COc1cc(OC)c(C2C(C(=O)N3CCOCC3)=C(C)NC3=C2C(=O)CC(C)(C)C3)cc1OC (centres undefined)	0%	-7%	12%	2.9%	1%	7%	3%	2%
Cc1ccc(S(=O)(=O)N2CCC(C)CC2)c([N+](=O)[O-])c1	-27%[46.1 µM]	nt	-1%	nt	19%	-11%	nt	-9%
CCc1ccc(NC(=O)c2cccc(NC3=NC4CS(=O)(=O)CC4S3)c2)cc1 (centres undefined)	nt	nt	2%	nt	-3%	4%	4%	nt
CC(=O)Nc1ccc(NC(=O)C2CC(=O)Nc3ncnn32)cc1 (centres undefined)	nt	nt	0%	nt	-3%	-19%	1%	nt
O=C1/C(=C/c2ccccc2)N=C(N2CCOCC2)N1c1cccc(Cl)c1	-9%	-9%	-74%	-9.2%	5%	-1%	-27%	10%
COc1ccc(-c2c(N)nnc3c2[nH]c2ccccc23)cc1OC	?	-3%	0%	-11%	18%	0%	-13%	7%
COc1ccc(CCNC(=O)Nc2cccc([N+](=O)[O-])c2)cc1	-1%[46.1 µM]	nt	1%	nt	-12%	3%	nt	-17%
CCOCCCNc1ncnc2c1nc1n2CCCC1	nt	nt	1%	nt	-2%	10%	-2%	nt
COC(=O)c1ccc(COc2ccc3c(C)c(C)c(=O)oc3c2C)o1	17%	16%	-2%	-4.9%	16%	37%[activator]	10%	?
O=C(CCc1ccc(S(=O)(=O)N2CCOCC2)cc1)Oc1ccccc1	17%	-1%	-2%	2.5%	17%	10%	-4%	6%
CCOC(=O)C1CCN(c2c(NC3CCCc4ccccc43)c(=O)c2=O)CC1 (centres undefined)	-9%	11%	8%	-1.0%	-8%	-2%	-8%	2%
CC(=O)Nc1ccc(C(=O)OCc2ccc(Cl)cc2)cc1	?	14%	-38%	-9.6%	-5%	-5%	-44%	4%
CCOc1ncccc1C(=O)OCC(=O)Nc1cc(S(=O)(=O)N2CCOCC2)ccc1C	?	-10%	-2%	-1.8%	12%	?	-31%	-16%
CCOC(=O)c1sc2nc(C)nc(NCc3ccc(F)cc3)c2c1C	?	nt	-5%	nt	57%	-11%	-46%	?
CC(C)Cn1c(-c2cc(Br)ccc2F)nc2c1c(=O)[nH]c(=O)n2CC(C)C	?	nt	0%	nt	-19%	9%	13%	?
Cc1ccc(NC(=S)N(CCC(C)C)C(C)c2ccncc2)c(Cl)c1 (centres undefined)	?	nt	-7%	nt	-16%	6%	10%	?
Cc1cc(C)c(S(=O)(=O)N2C=CC(C(F)(F)F)=NCC2)c(C)c1	?	2%	-4%	-1.4%	12%	-6%	1%	?
CCOc1ccc(N(C(C)=O)c2nc(C)cc(C)c2C#N)cc1	8%[46.1 µM]	-3%	7%	-5.0%	2%	-6%	14%	?
O=S(=O)(Nc1nc2ccccc2s1)c1ccc(Cl)s1	-35%	-9%	-1%	-1.1%	-6%	nt	-31%	-11%
O=C(CSc1nc(=O)[nH]c2c1CCCC2)NCc1ccccc1Cl	nt	-2%	nt	1.6%	nt	-11%	nt	6%[46.1 µM]
COc1ccc2[nH]c(C)c(CCNC(=S)Nc3cc(C)ccc3C)c2c1	-6%	1%	-16%	-0.3%	3%	-3%	8%	4%
COc1ccc(NS(=O)(=O)c2cc(NC(=O)Cn3cnc4c3c(=O)n(C)c(=O)n4C)ccc2C)cc1	nt	nt	2%	nt	6%	31%[activator]	-3%	nt
O=C(Cc1cccc2ccccc12)N/N=C/c1ccc2cccc(O)c2n1	?	nt	8%	nt	4%	19%	-45%	-1%
COC(=O)c1ccc(NC(=O)c2ccccc2NS(C)(=O)=O)cc1	-1%	9%	-2%	5.1%	-18%	-5%	-3%	-6%
COc1ccc(-c2ccc(CCC(=O)O)n2CC(=O)Nc2cccc(Cl)c2C)cc1	2%[46.1 µM]	-7%	nt	-7.7%	nt	-3%	nt	-6%[46.1 µM]
COc1ccc(-n2nc(C(=O)N3CCN(c4ccc(F)cc4)CC3)c3ccccc3c2=O)c(OC)c1	-3%	?	5%	2.9%	63%	-23%	2%	?
CN(C)Cc1c(C(=O)N/N=C/c2ccoc2)nnn1-c1nonc1N	-7%[46.1 µM]	nt	-4%	nt	5%	15%	-1%	6%
C=CCn1cc(-c2ccccc2)cc(C#N)c1=O	2%	7%	-6%	-1.6%	-10%	7%	1%	2%
Cc1nnc(N2C(=O)c3oc4ccccc4c(=O)c3C2c2ccc(C(C)(C)C)cc2)s1 (centres undefined)	?	7%	nt	6.4%	nt	4%	nt	13%[46.1 µM]
O=C(CCC(=O)N1CCOCC1)NCCc1ccc(Cl)cc1Cl	1%	nt	-4%	nt	-1%	-16%	4%	-1%
O=C(CNC(=O)c1ccc(C(F)(F)F)cc1)NC1CC1	-17%[46.1 µM]	nt	4%	nt	1%	21%	nt	-1%[46.1 µM]
O=C(CCNC(=O)c1ccccc1Cl)NCC1COc2ccccc2O1 (centres undefined)	-17%[46.1 µM]	nt	0%	nt	5%	-25%	nt	-2%
C=C1c2cccc(OC)c2O[C@H](C(=O)OCC)[C@@H]1CCCCCC	nt	?	-6%	-3.5%	4%	?	nt	nt
O=C(Nc1ccc2c(c1)OCO2)C1CC(=O)N(c2ccc3c(c2)OCCO3)C1 (centres undefined)	26%[14.2 µM]	nt	-2%	nt	6%	19%	5%	7%
CC(=O)Nc1nc2ccccc2n1CCN(C)C	-12%[46.1 µM]	-4%	-2%	-2.5%	-4%	-24%	-2%	4%
CCOC(=O)C1CCCN(C(=O)COc2ccccc2O)C1 (centres undefined)	5%	-2%	5%	1.0%	-9%	-18%	4%	2%
CCOc1ccc(N/C(SC)=C(/C#N)C(N)=O)cc1	-36%	-22%	-8%	-3.2%	16%	14%	-15%	21%[14.3 µM]
O=C(CN1C(=O)CCSc2ccccc21)Nc1ccc2c(c1)OCCO2	-7%	-10%	3%	0.1%	5%	13%	-3%	0%
Cn1cccc1C(=O)NC(=O)COC(=O)CC12CC3CC(CC(Br)(C3)C1)C2	5%[46.1 µM]	-11%	3%	-2.1%	-11%	-23%	7%	8%
O=C(CSc1nc2c(sc3ccccc32)c(=O)n1CCCN1CCCC1)NCc1ccccc1	?	nt	-1%	nt	10%	14%	nt	?
C[C@]1(C(=O)NCCCNc2ncc(C(F)(F)F)cc2Cl)C=C[C@@H](Cc2ccccc2)N1C(=O)c1ccccc1	?	?	-41%	-7.7%&-10%	4%	-20%	?	?
CCCCn1c(N)c(N(CCC(C)C)C(=O)CSc2nc3ccccc3n2C)c(=O)[nH]c1=O	6%	nt	nt	nt	15%	-15%	nt	-1%
COC(=O)c1sccc1NC(=O)Nc1ccc(OC)cc1OC	nt	nt	3%	nt	-11%	8%	8%	nt
CCOC(=O)N1CCN(C(=O)c2ccc(OC)c(OC)c2)CC1	25%[46.1 µM]	-4%	5%	0.1%	0%	-2%	2%	19%
Cn1nnnc1SCc1nc2scc(-c3ccccc3)c2c(=O)[nH]1	nt	nt	-2%	nt	2%	?	4%	nt
O=C(NCc1ccc(F)cc1)c1cc2c(s1)CCCC2	-9%	-5%	-19%	-4.6%	0%	32%[activator]	-64%	-20%
Cc1ccc(Oc2nc3ccccc3n3c(C)nnc23)c(C)c1	17%	5%	6%	1.5%	3%	19%	-2%	6%
CN1CCN(CC(=O)NC23CC4CC(CC(C4)C2)C3)CC1	2%[46.1 µM]	nt	2%	nt	-18%	-20%	-85%	15%[46.1 µM]
CC(NC(=O)C1CCC1)c1ccc(Cl)cc1 (centres undefined)	5%	-3%	0%	-2.0%	13%	8%	?	12%
COc1cccc(-n2c(Cc3cc(=O)[nH]c(=O)[nH]3)nnc2SC(C)C)c1	nt	7%	2%	2.8%	3%	0%	5%	nt
Cc1cnc(CN2CCCC(C(=O)c3ccc4c5c(cccc35)CC4)C2)[nH]1 (centres undefined)	-24%[46.1 µM]	nt	-1%	nt	1%	?	8%	17%
COc1ccc(-n2c(=O)c3c4c(sc3n(Cc3ccccc3C)c2=O)CCCC4)c(OC)c1	?	-30%	nt	-4.2%	nt	-12%	nt	-3%[46.1 µM]
(next part)
SMILES	Marburg entry inh	Cruzain inh noDet	SARS PLP yeast	Cruzain inh Det	RE007 growth inh	2A StopGo	NS1 function inh	LASV entry inh
CC(C)c1ccc(CC(C)C2C3=C(CCCC3=O)OC3=C2C(=O)CCC3)cc1 (centres undefined)	?	?	2%	-11%	2%	?	8%	?
O=C(Cn1cc(S(=O)(=O)Cc2cccc(F)c2)c2ccccc21)N1CCOCC1	17%	nt	0%	nt	-6%	3%	7%	6%
O=C(O)CSc1nc(-c2ccc(Cl)cc2)nc2c1oc1ccccc12	2%	?	-42%	-29%	34%	-7%	-32%	-5%
Nc1nnc(CSc2ccc(Cl)cc2)s1	-1%&-7%	-2%	10%	-0.8%	-6%	0%	7%	-11%

Compound activity (PubChem BioAssay)

Rows were taken by chance; overall some 4.7% were active at least once.
